Cruzain inh noDet – qHTS Assay for Promiscuous and Specific Inhibitors of Cruzain (without detergent); Cruzipain (Trypanosoma cruzi), P25779; purified cruzain, Z-FR-AMC fluorescence, no detergent; Potency, µM, inactives show max response, negative = inhibition, actives largely listed as inhibitors; hit rate 2.3% among 200,000; AID 1476, 2009;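 further: plate controls were enzyme without inhibitor for no effect and buffer without enzyme for full effect; nearly all actives have a fitted effect of over 40% in size; top concentration of the series not given in the record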
Target sequence (P25779 123-467 limits assumed): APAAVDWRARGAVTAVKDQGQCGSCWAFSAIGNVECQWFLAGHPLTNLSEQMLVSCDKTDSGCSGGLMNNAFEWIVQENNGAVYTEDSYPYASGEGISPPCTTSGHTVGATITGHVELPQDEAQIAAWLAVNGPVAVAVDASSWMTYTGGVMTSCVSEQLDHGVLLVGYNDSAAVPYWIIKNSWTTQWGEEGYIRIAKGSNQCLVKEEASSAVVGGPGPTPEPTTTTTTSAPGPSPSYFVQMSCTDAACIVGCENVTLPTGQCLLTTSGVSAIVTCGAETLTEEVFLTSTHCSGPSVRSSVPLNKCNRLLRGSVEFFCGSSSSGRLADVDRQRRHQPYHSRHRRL
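Purified cruzain at 1.5 nM, pre-incubated 15 min with compound at room temperature in 100 mM sodium acetate pH 5.5, 5 mM DTT, 0.00005% Triton X-100. Reaction started with 2 uM Z-FR-AMC; AMC fluorescence increase over 60 s gives rate.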
SARS PLP yeast – qHTS of Yeast-based Assay for SARS-CoV PLP | S. cerevisiae expressing SARS-CoV PLpro, growth rescue; control for the full effect not named in the record | Potency, µM (top dose mostly 32.9 µM), for the others: at the top dose activity, positive = growth rescue | hit rate 0.19% among 330,000 | AID 485353, 2010; active means well fitted rising curve with a large enough effect; inconclusive means small, poorly fitted or top-dose-only effect; inactive means no such curve, though single readings can be large or run the other way; further: 0% is about no effect; nearly all actives have a fitted effect of over 55% in size; growth read by luminescence after 48 h
Marburg entry inh – qHTS for inhibitors of binding or entry into cells for Marburg Virus. Marburg virus pseudotyped entry inhibition, cell reporter; control for the full effect not named in the record; about a third of the inactives were read at about 46 µM. Potency, µM (highest dose often 37.8 µM), for inactives: at the top dose activity change, negative = inhibition, usual class: inhibitors. hit rate 1.8% among 300,000. AID 540276, 2011; active = well fitted inhibition curve with a large enough effect; inconclusive = small, poorly fitted or top-dose-only effect, or effect the other way; inactive = flat fitted curve, though single readings scatter; tested in HEK293 cells; about a fifth of its hits are not listed in these tables; further: on the % scale 0 is the no-effect control and ±100 the full control effect; luciferase read-out
RE007 growth inh – qHTS Assay for Inhibitors of the HIV-1 protein Vpr; S. pombe RE007 Vpr strain, BacTiter-Glo ATP luminescence, 24 h; control for the full effect not named in the record; Potency, µM (series often up to 92.2 µM), for the others: top-dose activity change, negative = less growth; hit rate 0.21% among 360,000; active = well fitted falling curve with a large enough effect; inconclusive = small, poorly fitted or top-dose-only effect; inactive = no such curve, though single readings can be large or run the other way;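 further: on the % scale 0 is the no-effect control and ±100 the full control effect; nearly all actives have a fitted effect of over 50% in size; the assay follows cell death caused by Vpr and the record does not say whether a fall means rescue or toxicity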
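Fission yeast strain RE007, carrying one chromosomally integrated HIV-1 vpr copy, was seeded at OD 0.01 in PMG+AL medium with 23 nL pinned compound. After 24 h at 30 °C and 99% humidity, viability was read by BacTiter-Glo luminescence.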
NS1 function inh – qHTS Assay for Inhibitors of Influenza NS1 Protein Function. S. cerevisiae slowed by influenza A NS1, growth recovery by OD600. Potency, µM (titrated, usually from 46.1 µM), without a hit: at the highest dose activity, positive = more growth. hit rate 0.4% among 270,000; active means well fitted rising curve with a large enough effect; inconclusive means small, poorly fitted or top-dose-only effect; inactive means no such curve, though single readings can be large or run the other way; further: nearly all actives have a fitted effect of over 50% in size
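In this qHTS, NS1 from influenza A is expressed in budding yeast, where it slows growth. Cells are switched from glucose to 2% galactose medium (pH 6.0, -URA), treated with compound, and growth recovery is read at OD600.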
StopGo reporter – High Throughput Screening for Foot and Mouth Disease Virus Antivirals | human cells with a luciferase reporter of 2A StopGo recoding; control for the full effect not named in the record | Potency, µM (doses to about 57.9 µM), inactives show at the highest dose signal change, negative = less light | hit rate 1.2% among 410,000; active = well fitted falling curve with a large enough effect; inconclusive = small, poorly fitted or top-dose-only effect; inactive = no such curve, though single readings can be large or run the other way; tested in HEK293T cells; further: on the % scale 0 is the no-effect control and ±100 the full control effect; nearly all actives have a fitted effect of over 45% in size; luciferase light after 4 h
LASV entry inh – qHTS for Inhibitors of binding or entry into cells for Lassa Virus; Lassa virus pseudotype entry inhibition, cell reporter; control for the full effect not named in the record; Potency, µM (series often up to 37.9 µM), without a hit: at the top dose activity change, negative = inhibition, hits mostly inhibitors; hit rate 1.2% among 300,000; AID 540256, 2011; active means well fitted inhibition curve with a large enough effect; inconclusive means small, poorly fitted or top-dose-only effect, or effect the other way; inactive means flat fitted curve, though single readings scatter; tested in HEK293 cells; further: on the % scale 0 is the no-effect control and ±100 the full control effect; nearly all actives have a fitted effect of over 50% in size; luciferase read-out
Cruzain Triton – qHTS Assay for Promiscuous and Specific Inhibitors of Cruzain (with detergent); purified cruzain, Z-FR-AMC fluorescence, 0.01% Triton; Potency, µM, inactives show max response, negative = inhibition, hits mostly inhibitors; hit rate 0.43% among 200,000; AID 1478, 2009;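 further: plate controls were neutral wells for no effect and buffer without enzyme for full effect; nearly all actives have a fitted effect of over 40% in size; top concentration of the series not given in the record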
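Read-out: AMC fluorescence (360 nm excitation, 450 nm emission), four reads over 2 min, first-to-third difference used. Conditions: cruzain 1.5 nM, Z-FR-AMC 2 uM, pH 5.5 acetate, 5 mM DTT, 0.01% Triton X-100.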
Starred values were filed as active, the others as inactive; ? = inconclusive; nt = no result given; [ ] = another dose, or the depositor's remark. Unless noted, the call rests on the fitted dose curve; in most records, active means well fitted curve in the direction sought with a large enough effect; inconclusive means small, poorly fitted or top-dose-only effect, or another doubt; inactive means no such curve, though single readings can be large; an effect the other way counts as inactive or inconclusive. Potency means the concentration at half of the fitted maximal effect.

SMILES	Cruzain inh noDet	SARS PLP yeast	Marburg entry inh	RE007 growth inh	NS1 function inh	StopGo reporter	LASV entry inh	Cruzain Triton
CCOC(=O)C1=C(O)/C(=C/c2cn(CC(=O)N3CCCC3)c3ccccc23)SC1=Nc1ccccc1	?	4%	?	9%	23%	8.9µM*	-10%	-7.2%
COc1cc(/C=C/C(=O)O)cc(S(=O)(=O)Nc2ccc(F)cc2)c1OC	-1%	9%	14%	-6%	8%	36%[activator]	17%	-6.4%
COc1ccc(-c2noc(CN(C(=O)c3ccc(C)cc3C)C(C)C)n2)cc1	7%	nt	?	nt	nt	-25%	-3%[46.1 µM]	-4.4%
CCn1c(=O)c2sccc2n2c(CCCC(=O)N3CCN(c4cc(Cl)ccc4C)CC3)nnc12	-15%	nt	nt	nt	nt	?	6%[46.1 µM]	-0.6%
O=C(c1ccc2c3c(cccc13)CC2)C1CCCN(Cc2cccnc2)C1 (stereo not given)	nt	-1%	-22%[46.1 µM]	1%	-1%	0%	10%	nt
CC(C)c1nc(SCC(=O)Nc2ccc3c(c2)OCCO3)n[nH]1	nt	-6%	?	-6%	nt	-17%	5%[46.1 µM]	nt
Cc1ccc(S(=O)(=O)c2ccc(Oc3cccc(C)c3)cc2)cc1	-11%	-11%	?	16%	1%	-23%	-3%	-2.5%
COc1cccc(-c2nc(CS(=O)(=O)CC(=O)NCC(C)c3ccccc3)c(C)o2)c1 (stereo not given)	nt	5%	?	10%	-11%	-20%	nt	nt
COc1ccc(NC(=O)C2CCCN(S(=O)(=O)c3ccc4c(c3)CCCN4C(C)=O)C2)cc1Cl (stereo not given)	nt	-3%	-10%[46.1 µM]	15%	-16%	?	?	nt
Cc1c(N(C(=O)c2cnccn2)C2(C(=O)NC3CCCC3)CCCCC2)c(=O)n(-c2ccccc2)n1C	nt	-3%	-8%[46.1 µM]	15%	nt	6%	-2%	nt
c1cncc(-c2cn(C[C@H]3CC[C@@H]([C@@H]4CC[C@H](Cn5cc(-c6cccnc6)nn5)O4)O3)nn2)c1	nt	-4%	nt	8%	-12%	-2%	nt	nt
Nc1ccc(S(=O)(=O)NC2(C(F)(F)F)NC(=O)N(Cc3ccccc3)C2=O)cc1 (stereo not given)	nt	0%	10%[46.1 µM]	-28%	-14%	16%	nt	nt
CN(Cc1ccccc1)C(=O)CN1C(=O)NC(C)(c2ccc(Cl)cc2)C1=O (stereo not given)	nt	2%	1%	5%	-6%	55%[activator]	-27%	nt
CCN(c1ncnc2c1cnn2-c1ccc(C)cc1)C1CCCCC1	2%	nt	nt	nt	nt	-20%	?	1.6%
CCC(=O)NC(=S)Nc1cccc(C(C)=O)c1	8%	11%	6%[46.1 µM]	1%	5%	6%	18%	5.9%
COc1cccc(-c2csc(N3CCN(C(=O)NC45CC6CC(CC(C6)C4)C5)CC3)n2)c1	?	-5%	?	31%	?	?	?	-15%
COc1ccc(CN(C)C(=O)c2ccc(NS(=O)(=O)c3ccccc3)cc2)c(OC)c1	nt	3%	?	2%	nt	15%	?	nt
CC(Oc1ccc(Cl)cc1Cl)C(=O)Nc1ccncc1 (stereo not given)	11%	-21%	?	-19%	-154%	-8%	-19%	-1.4%
CCOC(=O)N/N=C(C)/C=C/c1ccco1	8%	4%	?	-27%	6%	11%	?	-4.1%
COC(=O)c1cn(C(=O)c2cc(Cl)ccc2Cl)c2ccccc12	nt	-1%	16%	1%	10%	-28%	-8%	nt
COc1ccccc1N1CCN(C(=O)c2cc3c(=O)n(C)c4ccccc4c3s2)CC1	8%	nt	-27%[46.1 µM]	nt	nt	-7%	10%[46.1 µM]	-2.3%
CCOC(=O)c1cnn(-c2ccccc2)c1NC(=O)c1ccc(C)cc1	6%	-1%	-4%	-12%	3%	1%	-5%	3.6%
Cc1ccccc1CS(=O)(=O)CC1(O)CCN(C(=O)c2cccc(C(F)(F)F)c2)CC1	?	5%	-15%	10%	8%	-14%	-13%	3.9%
CCOc1cccc(/C=N/NC(=O)c2cc(-c3cccn3C)n[nH]2)c1O	nt	4%	?	-5%	3%	13%	22µM*	nt
COc1ccccc1NC(=O)CSc1nc(SC)ns1	nt	-5%	?	27%	-12%	19%	nt	nt
CC(C#N)(CCc1ccccn1)CCc1ccccn1	nt	nt	10%[46.1 µM]	-12%	nt	-8%	-12%[46.1 µM]	nt
Cn1c(CNC(=O)c2ccccc2)nnc1SCC(=O)Nc1nccs1	nt	0%	-10%[14.2 µM]	-9%	5%	1%	10%	nt
Cc1ccccc1C1=C/C(=C(\SS/C(C(=O)c2ccc(OCC(=O)O)c(Cl)c2Cl)=C2\C=C(c3ccccc3C)SS2)C(=O)c2ccc(OCC(=O)O)c(Cl)c2Cl)SS1	nt	nt	?	0%	nt	?	?	nt
COc1ccc(C(=O)NCCc2nnc3ccc(SCC(=O)NCCc4ccc(OC)c(OC)c4)nn23)cc1	nt	-5%	nt	-1%	1%	-23%	nt	nt
O=C(O)COc1ccccc1/C=N/NC(=O)CSc1nc2ccccc2s1	nt	-3%	nt	-2%	11%	-3%	nt	nt
CCOC(=O)c1ccc(Oc2nc(OC)nc(N(C)C)n2)cc1	-5%	-3%	-3%	19%	-20%	-29%	-3%	-0.7%
CC1(C(=O)O)CCC(C(=O)Nc2ccc(F)cc2)C1(C)C (stereo not given)	nt	4%	-13%	-3%	9%	4%	-11%	nt
COc1cccc(/C=C/C(=O)OCC(=O)Nc2cc(C(F)(F)F)ccc2Cl)c1	-3%	?	3%	nt	3%	1%	?	-3.6%
Cc1cnc(C(=O)Nc2cccc3ncccc23)cn1	2%	-9%	nt	8%	-10%	4%	-10%	0.7%
Brc1ccc(-c2csc3[n+]2CCCCC3)cc1	nt	-1%	2%[46.1 µM]	-1%	nt	-14%	?	nt
Nc1nc(O)c(Sc2ccccc2[N+](=O)[O-])c(=O)[nH]1	nt	-1%	6%[46.1 µM]	-13%	15%	16%	13%[46.1 µM]	nt
O=C1CCC(CCC(=O)N2CCCC(C(=O)c3ccc(Cl)cc3)C2)=NN1 (stereo not given)	nt	0%	nt	-2%	1%	18%	nt	nt
CCOc1ccc(Nc2c(S(=O)(=O)c3ccc(C)cc3)cnc3cc(OC)c(OC)cc23)cc1	?	nt	-22%[46.1 µM]	nt	nt	-11%	nt	-3.5%
COCCCN(C(=O)Nc1ccc(C)c(C)c1)C(C)c1ccccn1 (stereo not given)	1%	1%	nt	-2%	-14%	-17%	nt	5.0%
CC(C)CN(CC(C)C)S(=O)(=O)N1CCC(C(=O)NCc2cccnc2)CC1	nt	0%	-16%	-20%	nt	4%	-17%	nt
CN(c1ccccc1)S(=O)(=O)c1cccc(NC(=O)CSc2nncs2)c1	7%	-1%	?	4%	0%	10µM*	10µM*	-1.6%
COc1cccc(CNc2ccc(S(=O)(=O)Nc3nccs3)cc2)c1O	0%	8%	-10%	18%	13%	46%[activator]	-27%	-4.0%
COc1ccc(OC)c(-c2nc3ccccc3nc2-c2ccccc2)c1	nt	0%	-29%[46.1 µM]	1%	4%	?	?	nt
CN(CCc1ccccn1)C(=O)CCC1CCCN(C(=O)CCOc2ccccc2)C1 (stereo not given)	nt	-1%	nt	-13%	-3%	-6%	nt	nt
C=CCn1c(SCC(=O)c2ccc(O)c(O)c2)nnc1-c1ccccc1OC	3%	-6%	nt	-9%	-12%	-17%	nt	-3.2%
Cn1c(O)c(Cc2cccc(Cl)c2Cl)c(=O)n(C)c1=O	nt	-1%	nt	16%	4%	-18%	nt	nt
NNC(=O)c1cc(-c2ccccc2)sc1N	nt	-3%	nt	31%	14%	-4%	nt	nt

Given with bars between the fields: entries from further up.
Structure | Cruzain inh noDet | SARS PLP yeast | Marburg entry inh | RE007 growth inh | NS1 function inh | StopGo reporter | LASV entry inh | Cruzain Triton
COCCCN(C(=O)Nc1ccc(C)c(C)c1)C(C)c1ccccn1 (stereo not given) | 1% | 1% | nt | -2% | -14% | -17% | nt | 5.0%
CC(C)CN(CC(C)C)S(=O)(=O)N1CCC(C(=O)NCc2cccnc2)CC1 | nt | 0% | -16% | -20% | nt | 4% | -17% | nt
CN(c1ccccc1)S(=O)(=O)c1cccc(NC(=O)CSc2nncs2)c1 | 7% | -1% | ? | 4% | 0% | 10µM* | 10µM* | -1.6%
COc1cccc(CNc2ccc(S(=O)(=O)Nc3nccs3)cc2)c1O | 0% | 8% | -10% | 18% | 13% | 46%[activator] | -27% | -4.0%
COc1ccc(OC)c(-c2nc3ccccc3nc2-c2ccccc2)c1 | nt | 0% | -29%[46.1 µM] | 1% | 4% | ? | ? | nt
CN(CCc1ccccn1)C(=O)CCC1CCCN(C(=O)CCOc2ccccc2)C1 (stereo not given) | nt | -1% | nt | -13% | -3% | -6% | nt | nt
C=CCn1c(SCC(=O)c2ccc(O)c(O)c2)nnc1-c1ccccc1OC | 3% | -6% | nt | -9% | -12% | -17% | nt | -3.2%
Cn1c(O)c(Cc2cccc(Cl)c2Cl)c(=O)n(C)c1=O | nt | -1% | nt | 16% | 4% | -18% | nt | nt
NNC(=O)c1cc(-c2ccccc2)sc1N | nt | -3% | nt | 31% | 14% | -4% | nt | nt
